Rango dissoc inh: inhibition of RanGTP-driven Rango-importin beta dissociation. O95149+P62826. Biochemical FRET Rango-importin beta, RanGTP-induced dissociation. Potency, µM (titrated, usually from 46.1 µM), for the others: at the top dose activity change, negative = inhibition. 340,000 tested, 0.071% active. AID 540253; active means falling FRET ratio curve, often poorly fitted, with flat reads before Ran was added; inconclusive means other falling curves, or compound fluorescence or quenching; inactive means flat or rising ratio curve;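 also: potency is read from the fitted curve at half-maximal effect; % of control where 0% means no effect; nearly all actives have a fitted effect of over 45% in size; -100% = wells without RanGTP and RCC1; the record marks most hits as doubtful in a second field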
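Recombinant Rango FRET biosensor (EYFP–snurportin 1 IBB–cerulean CFP10) at 0.1 uM premixed with 0.25 uM importin beta in PBS, 1 mM DTT, 0.02% Tween-20, 0.1% BSA. Compound added 5 min; RanGTP-RCC1 (0.6 uM Ran, 2 mM GTP, 0.2 uM RCC1) then triggers release, read at 45 min.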
GLA inh pH 4.5: blocks human alpha-galactosidase A at pH 4.5; purified enzyme, 4-MU-alpha-Gal fluorescence, pH 4.5; activity change, negative = inhibition, % at 105 µM; 230,000 tested, under 10 active; inconclusive = small, poorly fitted or top-dose-only inhibition, or a rising curve; inactive = flat fitted curve, though single readings scatter; no compound was filed as active;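 also: 0% = full activity with enzyme and -100% = basal without enzyme; dose as in the result columns while the protocol names 77 µM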
Rango complex inh: inhibitors of Rango-importin beta complex formation; Q14974; Rango CFP/YFP FRET sensor + importin beta, 45 min; Potency, µM (top dose mostly 92.2 µM), for inactives: at the top dose inhibition of complex formation; 340,000 tested, 0.031% active; AID 540263; active = rising FRET ratio curve, often small or poorly fitted; inconclusive = mostly compound fluorescence or quenching in the first reads; inactive = flat curves in all reads;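 also: potency is read from the fitted curve at half-maximal effect; 0% = DMSO wells and 100% = buffer wells lacking importin beta; nearly all actives have a fitted effect of over 15% in size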
Target sequence (Q14974 whole entry, looked up): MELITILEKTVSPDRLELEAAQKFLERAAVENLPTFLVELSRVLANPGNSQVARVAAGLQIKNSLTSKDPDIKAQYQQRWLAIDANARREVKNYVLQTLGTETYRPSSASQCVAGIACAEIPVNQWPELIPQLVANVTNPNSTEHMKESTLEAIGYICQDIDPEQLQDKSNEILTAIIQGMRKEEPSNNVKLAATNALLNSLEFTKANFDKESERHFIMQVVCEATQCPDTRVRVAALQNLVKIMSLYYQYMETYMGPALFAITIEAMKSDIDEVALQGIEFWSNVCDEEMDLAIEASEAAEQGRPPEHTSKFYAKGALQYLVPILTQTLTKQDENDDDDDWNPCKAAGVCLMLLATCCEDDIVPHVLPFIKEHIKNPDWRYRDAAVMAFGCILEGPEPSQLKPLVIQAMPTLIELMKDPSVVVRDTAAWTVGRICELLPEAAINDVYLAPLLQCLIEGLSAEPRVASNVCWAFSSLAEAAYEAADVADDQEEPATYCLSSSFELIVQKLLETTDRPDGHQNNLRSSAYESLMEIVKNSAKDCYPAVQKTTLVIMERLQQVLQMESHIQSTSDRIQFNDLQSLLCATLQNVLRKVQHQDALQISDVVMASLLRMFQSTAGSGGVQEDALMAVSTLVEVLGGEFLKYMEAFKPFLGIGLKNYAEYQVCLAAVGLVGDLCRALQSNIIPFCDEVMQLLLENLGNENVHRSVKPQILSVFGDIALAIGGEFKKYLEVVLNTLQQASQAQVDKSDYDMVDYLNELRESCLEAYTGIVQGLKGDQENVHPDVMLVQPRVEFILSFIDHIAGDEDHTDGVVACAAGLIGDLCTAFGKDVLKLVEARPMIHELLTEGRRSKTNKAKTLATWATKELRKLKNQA
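FRET biosensor (snurportin 1 IBB flanked by EYFP and cerulean), 50 nM, with compound 5 min, then 0.125 microM importin beta in PBS, 1 mM DTT, 0.02% Tween-20, 0.1% BSA. CFP/YFP ratio read after 45 min at room temperature; pre-read flags interference.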
miR-21 reporter: raises the signal of a miR-21 reporter. AID 2288. 340,000 tested, under 10 active. Potency, µM (highest dose often 38.3 µM), inactives show top-dose reporter change, positive = more light. HeLa miR-21 FLuc reporter, luciferase, 48 h; active = well fitted rising curve with a large enough effect; inconclusive = small, poorly fitted or top-dose-only effect; inactive = no such curve, though single readings can be large or run the other way;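 also: % of control where 0% means no effect; miR-21 action dims this reporter so a rising signal means less miR-21 action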
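HeLa cells stably expressing CMV-driven firefly luciferase with a downstream miR-21 binding sequence, endogenously expressing miR-21, were treated with titrations (up to about 40uM final) for 48 hours at 37 degree Celsius. Luciferase luminescence was read after lysis.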
* marks the source's active call; other numbers are inactive results; ? = inconclusive; nt = no result given; & = joins results of further samples.

Value order – Rango dissoc inh, GLA inh pH 4.5, Rango complex inh, miR-21 reporter
NC(=O)C1CCN(C(=S)NCc2ccc3c(c2)OCO3)CC1
→ -8%, 5, -1.0%, 5%
C/C(=N/Nc1ccc([N+](=O)[O-])cc1)c1c[nH]c2ccccc12
→ ?, nt, 14%, -25%
COc1ccc(N2CC(C(=O)Nc3ccc(S(=O)(=O)N4CCCC4)cc3)CC2=O)cc1 (centres undefined)
→ 2%, nt, 1.4%, -2%
O=C(CCC(=O)N1CCN(c2ccccc2F)CC1)c1ccc(Cl)s1
→ -3%, nt, -3.2%, nt
Cc1ccc(S(=O)(=O)Nc2nc3ccc(N)cc3s2)cc1
→ -20%, nt, -0.1%, -1%
CC(=O)Oc1ccc2ccccc2c1C(NC(=O)C(C)C)c1cccc([N+](=O)[O-])c1 (centres undefined)
→ -3%, -4, 1.0%, 11%
CC(C)c1ccc(N2C(=O)CC(NNC(=O)c3cccnc3)C2=O)cc1 (centres undefined)
→ 24%, 0, 4.5%, -1%
O=C(NC1CCN(S(=O)(=O)c2ccc(F)cc2)CC1)c1cccnc1
→ -4%, nt, -0.1%, 3%
COc1ccc(NC(=O)Nc2ccc(Br)cn2)cc1
→ 0%, -12, -0.1%, -49%
CN1CCN(C(=O)CCS(=O)(=O)c2cc3c(cc2Cl)NC(=O)CO3)CC1
→ -5%, nt, 0.2%, -1%
CC1CC(C)CN(c2ccc([N+](=O)[O-])cc2-c2nn[nH]n2)C1 (centres undefined)
→ ?, -6, ?, -2%
CC(=O)Nc1ccc(NC(=O)CSc2nnc(C)n2-c2ccccc2)cc1
→ 9%, nt, 3.3%, 5%
CCOc1cc(/C=C2/SC(=S)N(CC(=O)O)C2=O)ccc1OC(=O)c1cccs1
→ -5%, -13, 2.2%, 9%
COc1cccc(-n2c(SCC(=O)N3c4ccccc4CC3C)nnc2-c2ccco2)c1 (centres undefined)
→ -2%, -8, 0.2%, -1%
Cc1ccnc(NS(=O)(=O)c2ccc(NC(=O)c3ccc(Cl)cc3[N+](=O)[O-])cc2)n1
→ -4%, nt, -0.5%, -9%
Cn1nc(C(=O)N2CCOCC2)c([N+](=O)[O-])c1C(=O)N1CCOCC1
→ 1%, -9, -0.1%, -4%
O=C(COc1nncc2ccccc12)NCCC1=CCCCC1
→ 9%, -3, -3.4%, -9%
CC(=O)Nc1ccc(OC(=O)COc2ccc(Br)cc2)cc1
→ -12%, 3, 1.8%, -4%
C=CCn1c(SCC(=O)NCC2CCCO2)nnc1C1CCCCC1 (centres undefined)
→ 9%, 6, -0.2%, -1%
COc1cc(C(=O)N2CCN(C(=O)c3cc(-c4ccc(Br)cc4)n[nH]3)CC2)cc(OC)c1OC
→ 15%, nt, -0.4%, -5%

Ordered by the number under Rango complex inh (rising): three of the compounds above.
Value order – Rango dissoc inh, GLA inh pH 4.5, Rango complex inh, miR-21 reporter
O=C(COc1nncc2ccccc12)NCCC1=CCCCC1
→ 9%, -3, -3.4%, -9%
C=CCn1c(SCC(=O)NCC2CCCO2)nnc1C1CCCCC1 (centres undefined)
→ 9%, 6, -0.2%, -1%
Cn1nc(C(=O)N2CCOCC2)c([N+](=O)[O-])c1C(=O)N1CCOCC1
→ 1%, -9, -0.1%, -4%

(continued)
Value order – Rango dissoc inh, GLA inh pH 4.5, Rango complex inh, miR-21 reporter
O=C1CN(C(=O)c2cc3ccccc3oc2=O)C(c2ccc(F)cc2)c2cc(F)ccc2N1 (centres undefined)
→ -1%, 5, ?, 0%
COC(=O)c1cn(NC(=O)c2ccc(OC)c(OC)c2)c(=O)c2ccccc12
→ 1%, 4, 1.4%, -1%
CCC(=O)Nc1nc2c(OC)ccc(C)c2s1
→ 32%, 5, 3.3%, 6%
Cc1ccc(C(c2sc3ncnn3c2O)N2CCC(C)CC2)cc1 (centres undefined)
→ -17%, 3, -0.6%, 1%
Cc1csc(NC(=O)COc2ccc3c(c2)CCC3)n1
→ 3%, nt, 3.4%, nt
COc1ccc(Cn2cc3c(-c4ccc(F)cc4)nnc-3c3cc(OC)c(OC)cc32)cc1
→ ?, -4, ?, -15%
COC(=O)/C=C/c1cnc2ccccc2c1
→ 1%, -10, 0.0%, -31%
Cn1c(O)c(N=NC(=O)Cn2ccc(C(F)(F)F)n2)c2ccccc21
→ 2%, -3, 0.4%, -7%
CC1=C(C(=O)OC(C)C)C(c2cccs2)N2C(=O)CCSC2=N1 (centres undefined)
→ 9%, -9, 4.8%, 2%
COC(=O)c1ccc(CSc2nc(C)nc3sc(C)c(C)c23)o1
→ -7%, 6, -2.5%, 0%
CCC(C)(C)C1CCc2c(sc(NC(=O)c3cccs3)c2C(N)=O)C1 (centres undefined)
→ -16%, -1, ?, 0%
CCOn1c(=O)c(=O)n(OCc2ccccc2)c2ccccc21
→ 1%, -2, -0.6%, -10%
COc1ccc(OC(=O)CCCN2C(=O)c3ccccc3C2=O)cc1
→ -16%, -11, 0.7%, -12%
COc1cc(CNC(C)(C)CO)cc(Br)c1OCc1ccccc1
→ 27%, 2, 7.8%, 3%
Cc1ccc(S(=O)(=O)NC2=NCCCCC2)cc1
→ 17%, 4, -3.3%, -5%
CSc1ncc(Cl)c(C(=O)Nc2cccc(C)c2)n1
→ -3%, 0, -1.1%, -4%
O=C1CN(C(=O)c2ccc(Cl)c([N+](=O)[O-])c2)c2ccccc2N1
→ 3%, nt, 2.5%, 6%
CCOC(=O)C1CCN(S(=O)(=O)c2cn(C)c(=O)n(C)c2=O)CC1
→ 2%, -6, 3.6%, 6%
Cc1ccc(NC(=O)COC(=O)CCc2c(C)nc3ncnn3c2C)cc1C
→ 2%, nt, -1.5%, nt
CCN(CC)CCOCCOc1cc(C)c(Cl)c(C)c1
→ 3%, 1, -4.8%, -3%
O=C1NC(c2ccc(F)cc2)Oc2ccccc21 (centres undefined)
→ 1%, nt, -0.5%, 0%
Cc1ccc(S(=O)(=O)SC/C=C/CSS(=O)(=O)c2ccc(C)cc2)cc1
→ -4%, nt, -0.6%, nt
CN(C)/C=C(\C=O)c1ncc(C(F)(F)F)cc1Cl
→ -8%, 2, ?, -1%
C=CCOc1nc2c(c(=O)n(C)c(=O)n2C)n1Cc1ccccc1
→ -7%, -1, 1.9%, 0%
O=C(COc1ccc(Cl)cc1Cl)NCCCN1CCOCC1
→ -1%, 1, -5.1%, -15%
Cc1onc(-c2ccccc2)c1C(=O)OCC(=O)Nc1ccc2c(c1)OCO2
→ -8%, -5, 3.6%, -5%
CN(CCOC(=O)/C=C/c1ccccc1)C(C)(C)C
→ -10%, 1, ?, -1%
Cc1ccc(CN2C(=O)/C(=C\c3ccc(C(=O)NCc4cccnc4)cc3)Oc3ccccc32)cc1
→ nt, 11, nt, 12%
COc1cc(/C=C/C(=O)OCC(=O)Nc2ccc3c(c2)OCO3)ccc1O
→ -26%, nt, ?, nt
COCCCn1cn[nH]c1=S
→ 7%, 4, 0.2%, 4%
CCOC(=O)C(CC)n1cnc2sc3c(c2c1=O)CCC3 (centres undefined)
→ -5%, 4, -0.1%, -8%
Cc1nc(C)c(CCNC(=O)c2cccc(Cl)c2)s1
→ -3%, 4, 2.1%, -19%
CC(Oc1ccc(Cl)cc1)C(=O)N1CCCc2ccccc21 (centres undefined)
→ -15%, nt, 0.3%, -1%
CCC1Oc2ccc(C)cc2N(CC(=O)NCc2cccc(OC)c2)C1=O (centres undefined)
→ -8%, -18, 0.1%, -1%
Cn1c(SCC(=O)Nc2nnc(-c3ccccc3)o2)nnc1C1CC1
→ 1%, nt, 1.2%, -7%
O=c1c2ccccc2nc2n1CCC2O (centres undefined)
→ 21%, 5, ?, -2%
COC(C)c1oc2c(C)c3oc(=O)cc(C)c3cc2c1C (centres undefined)
→ 3%, nt, -1.4%, nt
CC1Cn2c(nnc2-c2cccc(N)c2)S1 (centres undefined)
→ -9%, 8, 0.3%, -9%
O=C(CSc1nnc(-c2ccc(Cl)cc2)n1CC1CCCO1)NC1CCS(=O)(=O)C1 (centres undefined)
→ 8%, 0, -1.4%, 2%
O=C1NC[C@H](c2ccccc2)N(CC2CCCCC2)C1=O
→ 15%, 9, 0.7%, -3%
COc1ccc2nc(NC(=O)C3CCN(S(=O)(=O)c4cccnc4)CC3)sc2c1
→ 4%, -1, -2.3%, 30%
N#CCCN=C(NS(=O)(=O)c1ccccc1)c1ccccc1
→ 13%, nt, -6.8%, 0%
O=C(Nc1cccc2nsnc12)c1cccs1
→ ?, -7&-4, ?, -30%&-21%
O[C@H]1COC2C1OC[C@@H]2O (some centres undefined)
→ -17%, nt, -2.1%, -4%
COc1cccc(CN(C)C(=O)c2[nH]c(C)c(C(C)=O)c2C)c1OC
→ -6%, nt, -4.7%, 11%
COC(=O)c1ccc(NC(=O)COc2ccc(S(=O)(=O)NC(C)(C)C)cc2)cc1
→ -7%, 0, 2.6%, 1%
O=c1oc2cc(OCc3ccc(C(F)(F)F)cc3)ccc2cc1-c1ccccn1
→ -13%, -1, ?, -1%
CC(=O)c1ccc(-c2ccc([C@H]3[C@H]4C=CC[C@@H](C)[C@@H]4C(=O)N3Cc3ccccc3)c(F)c2)cc1
→ 8%, -11, 3.6%, ?
Cc1cc(C)n(C(=O)CNC(=O)c2ccco2)n1
→ -4%, 11, -5.2%, -1%
COc1cccc(-n2c(Cc3cc(=O)[nH]c(=O)[nH]3)nnc2SCc2cccc(C(F)(F)F)c2)c1
→ 0%, 4, 5.2%, -2%

(cont.)
Value order – Rango dissoc inh, GLA inh pH 4.5, Rango complex inh, miR-21 reporter
O=C(CNC(=O)c1cccc(F)c1)N/N=C/c1ccc(O)c([N+](=O)[O-])c1
→ 1%, 3, -1.0%, -9%
CCC(C)NC(=O)C1CCCN(S(=O)(=O)c2ccc3c(c2)CC(C)N3C(C)=O)C1 (centres undefined)
→ -13%, nt, 0.9%, -1%
COc1ccc(C(=O)NCC(=O)OCC(=O)NCCC2=CCCCC2)cc1
→ 2%, -1, 0.4%, -2%
COc1ccccc1-n1nnnc1SCC(=O)NCC1CCCO1 (centres undefined)
→ -8%, nt, -4.0%, nt
CC(NC(=O)c1ccccc1Cl)C1CC2CCC1C2 (centres undefined)
→ 12%, nt, 5.1%, -7%
CCc1cc(C(=O)Nc2cc(Cl)ccc2N2CCN(C)CC2)sc1C
→ 6%, nt, -0.6%, nt
NC(=O)C1CCCN(C(=O)CCc2nnc(C3(c4ccc(Cl)cc4)CCC3)o2)C1 (centres undefined)
→ 9%, nt, -3.4%, -6%
CCN(CC)C(=O)C(C(=O)c1cccc([N+](=O)[O-])c1)n1cc(Cl)ccc1=O (centres undefined)
→ -7%, 1, 4.0%, 2%
Cc1ccc(CN2CCN(Cc3cnc(C)s3)CC2CCO)o1 (centres undefined)
→ 3%, 6, ?, -3%
Cc1cc(C(=O)CSc2n[nH]c(-c3ccccc3F)n2)c(C)n1Cc1cccs1
→ 15%, -2, 1.4%, -10%
CC(C)(C)C(=O)N(Cc1ccccc1)c1ccccn1
→ -11%, -27, -2.5%, -2%
C[C@@H](C(=O)NCc1ccc(S(C)(=O)=O)cc1)[C@@H]1C[C@@]1(C)[C@@H](NC(=O)OCc1ccccc1)c1ccccc1
→ -11%, -4&-14, -5.4%, 9%
CCOC(=O)N1CCC(=NNc2ccc(S(=O)(=O)N3CCOCC3)cc2[N+](=O)[O-])CC1
→ 1%, -5, 3.3%, 2%
O=C(COc1ccc(/C=N/NC(=O)c2cccnc2)cc1)Nc1ccccc1
→ 0%, nt, -4.9%, -22%
O=C(COc1ccc(F)cc1)N1CCCCCCC1
→ 4%, nt, -0.9%, -7%
CCCNC(=O)COC(=O)c1ccc(S(=O)(=O)N2CCCCCC2)cc1
→ 5%, -8, 1.5%, 0%

Source: PubChem (National Center for Advancing Translational Sciences (NCATS))

These rows are one share of the data; rates above refer to the full screens.
